rRNA inh HTS: reduced GFP signal of wild-type E. coli, primary screen, bacterial rRNA inhibitor project, GFP/RFP fluorescence, OD600, single point; GFP signal change (wild-type ribosome), % (concentration not given with the values); E. coli WT GFP vs humanized-ribosome RFP mutants, 24 h; active compounds read low; DMSO median 0, no signal -100; actives 1.6% (n = 350,000);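 active = significant combined selectivity score with lowered wild-type GFP, culture density cut under 30%, mutant RFP and density less affected; inactive = any of these conditions unmet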; note: one replicate is shown; some compounds called inactive have numbers as strong as hits
ALR inh: inhibitors of human ALR sulfhydryl oxidase, primary screen, biochemical, H2O2 detection, HRP-luminol luminescence, single point | FAD-linked sulfhydryl oxidase ALR (Homo sapiens), P55789 | purified ALR, DTT oxidation | inhibition, % (concentration not given with the values) | actives 3.8% (n = 290,000) | AID 485317, 2010;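 active = mean and each replicate at 75% or more; inconclusive = only one of the two met; inactive = neither met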;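 note: stock transfer was 7.5 nL into about 7.5 µL; 0% = neutral wells and 100% = wells with inactivated enzyme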
Target sequence (P55789 whole entry, looked up): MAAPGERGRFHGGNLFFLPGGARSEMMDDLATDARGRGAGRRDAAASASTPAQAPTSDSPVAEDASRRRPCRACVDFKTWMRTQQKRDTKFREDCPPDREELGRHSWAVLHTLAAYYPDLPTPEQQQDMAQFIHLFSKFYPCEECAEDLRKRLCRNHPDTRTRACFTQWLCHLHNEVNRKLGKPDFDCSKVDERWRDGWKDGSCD
RanGTP-Imp inh: inhibitors of RanGTP-importin-beta interaction, primary screen, biochemical, FRET, CFP-Ran, YFP-importin-beta, homogeneous; Ran GTPase (GTP-bound) - importin-beta complex; cell-free CFP-Ran/YFP-importin-beta FRET ratio; inhibition, % (concentration not given with the values); actives 1.1% (n = 300,000);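 active = most replicates above 15%; inconclusive = exactly half above 15%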;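 note: 0% = DMSO wells and 100% = Ran loaded with GDP instead of GTP; wells of about 40 µL received 100 nL stock; the first replicate is given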
T cruzi inh: inhibitors of intracellular T. cruzi growth, primary screen, luminescence, NIH3T3 host cells | actives 1.4% (n = 300,000) | inhibition, % (test concentration not listed) | AID 1885, 2009 | T. cruzi beta-gal in NIH3T3, 90 h;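 active = mean inhibition across valid replicates above about 55%, limit read from the data; inconclusive = mean below that limit but half or more replicates reach it; inactive = mean below it, under half of replicates reach it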;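 note: signal also drops with host cell toxicity which is not excluded here; 0% = plate median of DMSO wells and 100% = zero luminescence signal; higher percent means less beta-gal luminescence so fewer parasites; stock transfer was 50 nL into about 50 µL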
FGF22 binding: binders of human FGF22 protein, primary screen, FGF22 synaptogenesis inhibitor project, biophysical, thermal shift, single point; Fibroblast growth factor 22 (Homo sapiens), Q9HCT0; recombinant FGF22 thermal shift, SYPRO orange fluorescence; percent of sucrose octasulfate shift, DMSO zero; actives 1.5% (n = 340,000); calls only at 9.99 µM; AID 651658, 2012;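 active = melting point raised past a set limit in the mean and every replicate; inconclusive = no clear call; three in four hits are not shown here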
Target sequence (Q9HCT0 whole entry, looked up): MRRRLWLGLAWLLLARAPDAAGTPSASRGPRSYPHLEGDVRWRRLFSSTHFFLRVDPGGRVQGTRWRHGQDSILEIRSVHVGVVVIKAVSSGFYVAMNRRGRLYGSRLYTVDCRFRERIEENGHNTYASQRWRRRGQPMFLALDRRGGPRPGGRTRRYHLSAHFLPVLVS
Beta cell apopt: inhibitors of cytokine-induced beta cell apoptosis, primary screen, luminescence. protection from apoptosis, % (test concentration not listed). AID 435005, 2010. INS-1E cytokine-induced death, ATP luminescence, 48 h; percent of positive-control rescue, neutral wells zero. actives 0.8% (n = 300,000);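 active = all replicates at 75% or more, or half of them and the mean; inconclusive = half reach 75% but not the mean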;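 note: 0% = cytokine-treated negative control wells and 100% = positive control rescue; higher means more ATP so stronger rescue from cytokine killing; wells of about 40 µL received 100 nL stock; the first replicate is given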
MLL AF4-AF9 inh: inhibitors of AF4 peptide binding to AF9, primary screen, biochemical, AlphaScreen, biotin-AF4 peptide, FLAG-AF9, single point. AID 651704, 2012. Protein AF-9 (Homo sapiens), P42568. inhibition, % at 10 µM. actives 0.47% (n = 350,000);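 active = every replicate reaching a set inhibition limit, whatever the replicate mean, cut at about 25% in these data; inconclusive = mean inhibition reaches that limit but some replicates miss it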;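 note: 0% = plate neutral control median and 100% = total signal loss; the record names both 10 and 1 µM as test concentration; the first replicate is given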
Target sequence (P42568 whole entry, looked up): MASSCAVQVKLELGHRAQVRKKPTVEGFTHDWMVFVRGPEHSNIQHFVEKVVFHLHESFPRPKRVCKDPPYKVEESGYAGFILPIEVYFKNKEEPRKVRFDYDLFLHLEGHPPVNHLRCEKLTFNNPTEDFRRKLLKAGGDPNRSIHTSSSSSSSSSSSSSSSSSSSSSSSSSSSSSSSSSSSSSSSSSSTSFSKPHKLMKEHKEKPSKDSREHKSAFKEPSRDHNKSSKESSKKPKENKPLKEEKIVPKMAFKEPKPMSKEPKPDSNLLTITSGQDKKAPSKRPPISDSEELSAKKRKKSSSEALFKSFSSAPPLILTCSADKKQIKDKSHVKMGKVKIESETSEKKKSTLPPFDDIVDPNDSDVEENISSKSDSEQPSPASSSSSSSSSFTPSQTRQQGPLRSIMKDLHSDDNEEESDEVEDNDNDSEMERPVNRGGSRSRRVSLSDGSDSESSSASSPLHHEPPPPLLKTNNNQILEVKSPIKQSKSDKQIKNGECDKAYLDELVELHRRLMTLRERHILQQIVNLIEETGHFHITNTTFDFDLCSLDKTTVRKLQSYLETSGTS
Calb FLC: C. albicans growth inhibition with fluconazole, primary screen, CaCi-2 strain, Alamar Blue fluorescence. growth inhibition, % (no concentration beside the values). C. albicans CaCi-2 (fluconazole-resistant clinical isolate) + fluconazole, 48 h. actives 0.57% (n = 300,000). AID 1979, 2009;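 active = most replicates above 75%; inconclusive = exactly half above 75%; inactive = most below 75%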;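 note: all wells also contain fluconazole at 8 µg/ml as a sub-toxic cotreatment; 0% = median of DMSO wells and 100% = median of geldanamycin control wells; wells of about 8 µL received 7.5 nL stock; the first replicate is given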
rRNA inh HTS OD600: recorded beside rRNA inh HTS, whose call it bears; OD600 change, %; measured here: OD600 growth;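 optical density of the mix in the first replicate; 0 = DMSO median and -100 = no signal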
rRNA inh HTS RFP: second read-out of rRNA inh HTS, no call of its own (marks repeat the call); RFP signal change, %; measured here: RFP humanized mutant strains;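 first replicate; 0 = DMSO median and -100 = no signal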
Starred values were filed as active, the others as inactive; i = inactive; ? = inconclusive; nt = not tested or not shown.

SMILES | rRNA inh HTS | rRNA inh HTS OD600 | rRNA inh HTS RFP | ALR inh | RanGTP-Imp inh | T cruzi inh | FGF22 binding | Beta cell apopt | MLL AF4-AF9 inh | Calb FLC
CCCCCn1nc(C(=O)OCc2nnc(-c3ccccc3)o2)c2ccccc2c1=O | 9.6 | 10.3 | 1.0 | 4.7 | nt | 0.8 | nt | 0.6 | -0.7 | -4.5
O=C(CN1C(=O)/C(=C\c2ccccc2Cl)Oc2ccccc21)NCc1cccnc1 | 4.7 | 1.7 | 0.1 | 2.7 | 5.4 | 36.9 | i | 11.2 | 1.8 | 3.4
O=C(COC(=O)c1ccc(S(=O)(=O)N2CCCC2)cc1)NCCc1ccc(F)cc1 | 5.9 | 15.9 | 0.6 | -1.2 | nt | nt | i | -3.1 | -0.8 | nt
CC(C)n1c(N)c(C#N)c2ccc([N+](=O)[O-])cc2c1=O | 6.9 | 7.0 | -3.4 | 40.6 | -1.1 | -1.1 | i | 0.1 | -3.0 | 2.9
C#CCOCCOCCOCCNc1nc(N2CCN(C(=O)[C@H](Cc3cc4ccccc4[nH]3)n3cc([C@@H](N)C(C)CC)nn3)CC2)nc(N2CCN(C(=O)[C@H](Cc3cc4ccccc4[nH]3)n3cc([C@@H](N)Cc4ccc(O)cc4)nn3)CC2)n1 (stereo not given in full) | nt | nt | nt | 1.6 | 1.9 | 5.2 | nt | 7.6 | nt | 9.8
CC(C)OC(=O)NC(C)(C)COC(=O)Nc1cccc(Cl)c1 | nt | nt | nt | 6.3 | -2.4 | 7.4 | nt | -1.9 | nt | 21.6
Cc1cc(C)c(NC(=O)COC(=O)C2CCN(c3ccc(C(F)(F)F)cn3)CC2)c(Cl)c1 | -1.4 | -21.0 | 14.5 | -2.6 | -3.0 | 1.3 | i | -0.3 | -0.4 | 2.0
CCOc1ccc(C(=O)Nc2cc(C)ccn2)cc1 | -11.3 | 0.0 | -1.8 | 2.2 | -1.5 | 10.8 | i | 13.2 | 1.3 | -15.6
CCOc1ccc(C(=O)N2CCCC(c3nc(-c4cccs4)no3)C2)cc1 (stereo not given) | -14.9 | -16.5 | 3.2 | nt | -1.9 | -4.9 | i | 3.2 | -44.4 | 5.8
O=C(COC(=O)Cn1cnc2ccccc21)Nc1ccc(OC(F)F)cc1 | 20.1 | 15.1 | 2.1 | -0.1 | nt | nt | i | 5.2 | -0.2 | nt
CCN(CC)C(=O)CSc1nc2ccccc2c(=O)n1CC1CCCCC1 | nt | nt | nt | -11.7 | -0.8 | 30.1 | nt | 4.1 | nt | 0.7
COc1ccc(CCNC(=O)CSc2n[nH]c(N)n2)cc1 | 3.5 | -2.3 | -3.4 | nt | -0.5 | -6.4 | i | 0.4 | -2.5 | -9.2
Cc1ccc(-c2noc(CCC(=O)NC3CC3)n2)cc1 | -19.2 | -22.6 | 1.1 | nt | 0.2 | nt | i | -6.3 | -0.6 | 1.2
CCCCOC(=O)/C=C\C(=O)OCCCC | 14.2 | 9.3 | 0.8 | nt | -1.5 | -3.9 | i | -6.1 | -1.3 | -5.4
CCOC(=O)C1=C(N)Oc2cc(C)n(CCc3ccc(OC)c(OC)c3)c(=O)c2C1c1cccnc1 (stereo not given) | nt | nt | nt | 1.1 | ? | 36.6 | nt | 7.7 | nt | 1.4
O=C(Nc1ccc(Br)cc1)c1cccc(N2C(=O)C3CCCCC3C2=O)c1 (stereo not given) | -16.4 | -11.1 | -2.4 | -3.5 | nt | -1.0 | i | -2.6 | -0.8 | nt
CN(CC(=O)Nc1ccc(F)c(F)c1F)C(=O)CCN1C(=O)C2CCCCC2C1=O (stereo not given) | 8.9 | 4.4 | -0.1 | 0.7 | nt | nt | i | -2.2 | -3.6 | nt
CN(CC(=O)Nc1c(Cl)cccc1Cl)C(=O)c1ccncc1 | 17.0 | 19.1 | -2.7 | -6.1 | -1.7 | -14.4 | i | -5.1 | -5.9 | 6.7
Cc1c(C)c2cc(Cl)c(O)c(CN(C)C)c2oc1=O | nt | nt | nt | 26.4 | 33.3* | -9.1 | nt | 0.3 | nt | 19.0
COC(=O)c1cccc(Cn2nnc3ccccc3c2=O)c1 | nt | nt | nt | -1.1 | 3.0 | -2.1 | nt | -1.4 | nt | 2.6
O=C(N1CCCCCC1)N1CCN(S(=O)(=O)N2CCCCC2)CC1 | nt | nt | nt | -3.6 | ? | -7.7 | nt | 0.9 | nt | -5.4
CCCCOc1ccc(C(=S)N2CCC(C(N)=O)CC2)cc1 | -16.1 | -14.9 | -3.6 | -31.0 | -0.6 | -3.4 | i | nt | 0.2 | -2.0
COCCCN1C(=O)c2ccc(C(=O)OCC(=O)N(CCC#N)c3cc(C)cc(C)c3)cc2C1=O | -5.4 | -2.3 | -1.3 | -2.2 | -6.0 | -6.3 | i | -2.1 | 1.8 | -3.6
COc1ccc(C(=O)Nc2cc(C)nn2-c2ccc(C)cc2)cc1 | -1.3 | -4.3 | 0.6 | -26.5 | -1.2 | 6.5 | i | -1.1 | -1.0 | 1.5
CC1(C)Cc2nc3oc4c(N(CCO)Cc5ccccc5)ncnc4c3cc2CO1 | nt | nt | nt | -5.2 | 0.1 | 5.4 | nt | 6.8 | nt | -41.0
Carrying on.
SMILES | rRNA inh HTS | rRNA inh HTS OD600 | rRNA inh HTS RFP | ALR inh | RanGTP-Imp inh | T cruzi inh | FGF22 binding | Beta cell apopt | MLL AF4-AF9 inh | Calb FLC
COc1ccc(OC)c(C(=O)Cn2c3[n+](c4ccc(C(F)(F)F)cc42)CCCCC3)c1 | 3.8 | 0.9 | -1.8 | -6.8 | 3.4 | 36.3 | i | 0.5 | 0.0 | 2.7
Cc1ccc(S(=O)(=O)c2nc(S(C)(=O)=O)sc2N2CCC(C)CC2)cc1 | 20.3 | 19.6 | 2.0 | 10.0 | 2.5 | -6.0 | i | -8.7 | 2.9 | -1.4
CCOC(=O)c1ccccc1NC(=O)COc1ccccc1 | nt | nt | nt | 97.0* | -1.0 | 2.2 | nt | -1.2 | nt | -5.9
CC(CN1CCOCC1)OC(=O)/C=C/c1ccccc1 (stereo not given) | 5.8 | -2.8 | 0.1 | -8.4 | -3.2 | -15.9 | i | 0.2 | -0.4 | 8.9
COc1ccc2c(c1OC)C(=O)OC2n1c(O)c(N=NC(C)=O)c2ccccc21 (stereo not given) | 11.1 | 9.1 | -0.3 | -6.3 | -0.7 | 1.3 | i | -10.2 | -1.0 | 1.5
COc1ccc(C(CNC(=O)c2ccc(S(=O)(=O)N3CCCC3)cc2)N(C)C)cc1OC (stereo not given) | 6.8 | 3.7 | -0.4 | nt | 7.9 | 1.2 | i | -8.1 | -0.1 | -6.5
Cc1cccc(OCC(=O)N/N=C/C=C/c2ccco2)c1 | -2.3 | 3.5 | 5.6 | 0.1 | -3.4 | 3.9 | i | -5.6 | -10.1 | 2.9
O=C(c1ccc(Cl)cc1)N1CCCC(c2ccccc2)=N1 | nt | nt | nt | 2.1 | -5.2 | -4.5 | nt | -2.4 | nt | -0.5
CC(C)(C)NC(=O)C(=O)N/N=C/c1ccc(F)cc1 | 14.3 | 10.4 | -2.4 | -25.1 | 12.6 | 1.5 | i | -2.3 | -1.5 | -10.8
O=C(CNC(c1ccccc1)c1ccccc1)Nc1cc([N+](=O)[O-])ccc1Cl | nt | nt | nt | -36.9 | 3.4 | 20.2 | nt | 1.0 | nt | -18.4
N=c1oc2ccc3ccccc3c2cc1-c1nc(-c2ccccc2)cs1 | 9.8 | -1.0 | 10.7 | -21.7 | 72.6* | -18.8 | i | -3.7 | 1.1 | 0.7
CCN(CC)CCN1C(=O)C(=O)/C(=C(/O)c2cnn(-c3ccccc3)c2C)C1c1ccc(C)o1 (stereo not given) | nt | nt | nt | 2.3 | -0.6 | -21.2 | nt | -5.7 | nt | 1.1
Cc1cccc(NC(=O)[C@@H]2CCCN2S(=O)(=O)c2ccc(Cl)cc2)c1 | -20.6 | -29.0 | -11.5 | nt | nt | nt | i | -1.6 | -3.1 | nt
CCOC(=O)N1CCN(C(=O)CSc2nnc(COc3ccc(Cl)cc3)o2)CC1 | -6.5 | -4.2 | -0.2 | -10.7 | -1.6 | 0.1 | i | 2.2 | 1.7 | 1.9
Cc1ccc(C(=O)C[n+]2cc(Br)cc(Br)c2)cc1[N+](=O)[O-] | nt | nt | nt | 4.0 | 9.9 | -4.7 | nt | 6.8 | nt | 15.0
Cc1cc(C(c2nnnn2Cc2ccccc2)N2CCOCC2)c(C)n1-c1ccc2c(c1)OCO2 (stereo not given) | nt | nt | nt | -3.3 | ? | 10.5 | nt | -13.5 | nt | 5.1
COc1ccccc1CNC(=O)c1cccc(N(C)C)c1 | nt | nt | nt | 42.4 | 1.2 | 19.8 | nt | -9.8 | nt | -1.1
CC1(C)CC(=O)CC(C)(C)N1OC(=O)c1ccncc1 | nt | nt | nt | -7.3 | 0.5 | -5.2 | nt | 1.7 | nt | -7.3
CCOC(=O)CCCCCN(Cc1ccccc1)S(=O)(=O)c1ccc([N+](=O)[O-])cc1 | nt | nt | nt | -4.3 | -0.6 | 15.3 | nt | -2.0 | nt | 2.5
CN1CCN(C(=O)c2ccccc2-c2nc(-c3ccc(Cl)cc3)no2)CC1 | nt | nt | nt | -3.7 | -2.0 | -16.8 | nt | -5.6 | nt | -4.6
COc1ccc(CCNC(=O)COC(=O)c2ccc(N3CCCC3=O)cc2)cc1OC | 15.9 | 11.1 | 1.1 | -2.0 | ? | -2.5 | i | 3.1 | -1.9 | -1.1
CCOc1cc(S(=O)(=O)NC2CC(C)(C)NC(C)(C)C2)ccc1F | nt | nt | nt | -1.9 | 6.6 | -3.4 | nt | -7.6 | nt | -11.4
COC(=O)C[C@H]1c2cc(C(F)(F)F)ccc2S(=O)(=O)N1C1CCCC1 | -8.4 | 0.3 | -1.3 | -7.8 | 1.7 | -8.8 | i | 0.2 | 0.6 | -3.9
Cc1cc2oc(C(=O)Nc3nonc3C)c(C)c2cc1C | -3.7 | 28.7 | -4.2 | 0.4 | 1.6 | -40.7 | i | nt | 0.9 | 7.3
COc1cccc(CN(C)C(=O)CCNC(=O)c2ccc(Br)cc2)c1 | -2.3 | -2.8 | 5.9 | -3.8 | ? | -21.8 | i | 2.7 | 9.6 | -8.5

Quoted from the listing.
`Cc1cc2oc(C(=O)Nc3nonc3C)c(C)c2cc1C` | rRNA inh HTS OD600: 28.7
`COc1ccc(OC)c(C(=O)Cn2c3[n+](c4ccc(C(F)(F)F)cc42)CCCCC3)c1` | rRNA inh HTS: 3.8

High-throughput results deposited in PubChem BioAssay by Broad Institute.

The list is partial, so the mix of outcomes need not match the whole.
